Mtb MenB inh – blocks the Mycobacterium tuberculosis MenB enzyme | P9WNP5 | MenB enzyme assay, absorbance read-out; some hits fall short of the stated cut | 0.43% of 100,000 active | inhibition, %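 (about 12 µg/mL by stock and volumes)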 | AID 540299;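 active = mean of two replicates above 30%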;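 also: 0% = no compound and 100% = wells with inactive enzyme; the first replicate is given; strong numbers were not always called active; inactives centre near -10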
MbtI inh – blocks the Mycobacterium tuberculosis siderophore enzyme MbtI; purified MbtI enzyme, fluorescence intensity read-out; P9WFX0; inhibition, %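 (about 17 µg/mL by stock and volumes)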; 0.89% of 100,000 active;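 active = above 50% in both replicates, above 80% if mildly self-fluorescent; inactive = the rest, strongly fluorescent compounds included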;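 also: 0% = mean of negative and 100% = mean of positive controls; one replicate is shown; some compounds called inactive have numbers as strong as hits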
Target sequence (P9WFX0 whole entry, looked up): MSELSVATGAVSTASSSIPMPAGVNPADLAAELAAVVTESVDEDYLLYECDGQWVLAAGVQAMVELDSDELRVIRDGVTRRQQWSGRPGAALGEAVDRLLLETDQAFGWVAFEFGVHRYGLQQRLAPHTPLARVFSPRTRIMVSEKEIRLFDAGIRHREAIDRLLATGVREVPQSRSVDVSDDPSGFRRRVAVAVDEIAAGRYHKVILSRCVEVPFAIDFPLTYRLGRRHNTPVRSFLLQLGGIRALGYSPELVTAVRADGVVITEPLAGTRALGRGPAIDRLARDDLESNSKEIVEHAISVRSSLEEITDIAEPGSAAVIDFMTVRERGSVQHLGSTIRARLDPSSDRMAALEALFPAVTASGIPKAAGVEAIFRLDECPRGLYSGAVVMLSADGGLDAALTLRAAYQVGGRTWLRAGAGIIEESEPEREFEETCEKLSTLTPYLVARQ
Polio RdRp inh – poliovirus RNA polymerase inhibition; 0.66% of 150,000 active; poliovirus polymerase elongation, fluorescence polarization; hits give low values; % elongation, % (compound at 16.7 µg/mL); AID 588519; P03300; in the data active = % elongation below about 90%; also: some results filed as inactive read as strong as hits
Target sequence (P03300 1749-2209 limits assumed): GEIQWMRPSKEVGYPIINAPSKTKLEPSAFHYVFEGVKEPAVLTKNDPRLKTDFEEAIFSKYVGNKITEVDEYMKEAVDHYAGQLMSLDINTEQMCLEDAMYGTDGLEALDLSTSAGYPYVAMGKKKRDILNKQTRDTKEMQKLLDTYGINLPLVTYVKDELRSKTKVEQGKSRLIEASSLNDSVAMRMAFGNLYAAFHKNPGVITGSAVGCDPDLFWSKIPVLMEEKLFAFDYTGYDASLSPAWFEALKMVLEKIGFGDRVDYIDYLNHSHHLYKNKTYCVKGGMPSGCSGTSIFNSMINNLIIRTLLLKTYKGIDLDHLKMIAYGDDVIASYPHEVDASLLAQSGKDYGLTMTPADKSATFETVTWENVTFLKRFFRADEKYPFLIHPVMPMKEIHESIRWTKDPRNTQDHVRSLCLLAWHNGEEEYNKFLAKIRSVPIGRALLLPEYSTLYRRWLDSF
Polio RdRp inh intensity – further read-out of Polio RdRp inh, marked with its call; % elongation; measured here: total intensity read-out; formula for this scale not given here;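 total fluorescence in place of polarization; lower means less elongation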
Active calls of the source: *; i = inactive; · = no result given; & = joins results of further samples.

SMILES	Mtb MenB inh	MbtI inh	Polio RdRp inh	Polio RdRp inh intensity
O=C(Nc1ccncc1)c1cnc2sccn2c1=O	-25	2	102	107
Oc1ccccc1OCc1ccccc1	-16	-6	102	102
CCn1c(/N=C/c2ccc(OC)cc2O)nc2ccccc21	-35	6	103	100
O=S(=O)(c1ccccc1)c1nnn2c1nc(NCc1ccco1)c1sccc12	4	130	101	104
COc1ccc(C=C2C(=O)NC(=S)NC2=O)cc1	-36&-30	97*	104&100	103&100
CC1(N(O)C=C2C=CC(=O)C=C2)CCCCC1=O (configuration not stated)	-54	11	101	98
CS(=O)(=O)c1ccccc1C(=O)Nc1nccs1	-39	0	104	103
CCNC(=O)CSc1ccc2ccccc2c1	-12	0	102	104
CC(C)CN=CC1=C(O)c2ccccc2C1=O	-45	30	102	105
O=C(COc1ccccc1)NCCc1nc2ccccc2n1Cc1ccccc1	-9	-12	101	106
Cc1sc2ncn(CC(=O)N3CCC(C)CC3)c(=O)c2c1C	-9	9	102	106
Clc1ccc(CCC(Cn2ccnc2)Sc2c(Cl)cccc2Cl)cc1 (configuration not stated)	7	1	98	104
C=CCN(CC=C)C(=O)C1CCC(C(=O)N(CC=C)CC=C)CC1 (configuration not stated)	5	1	97	100
O=C1CCCc2nc(N3CCN(c4ccccc4)CC3)ncc21	-51	-8	104	112
Cc1cccc(OCC(=O)Nc2cccc(-c3nc4ncccc4o3)c2)c1	-33	-66	99	105
CN(CC(=O)N1CCCC1=O)Cc1ccccc1	-59	-5	105	102
CCCN1C(=O)/C(=c2\sc3nc(-c4ccccc4)nn3c2=O)c2ccccc21	17	1	102	103
CC(=O)N(C)Cc1nc2ccccc2[nH]1	-19	-3	103	102
O=C(OCN1C(=O)c2ccccc2C1=O)c1ccc2c(c1)OCCO2	-3	2	101	105
O=C(c1cc2c(s1)CCCC2)N1CCN(c2ccccc2)CC1	·	-5	102	104
N#Cc1c(-c2ccc(Cl)cc2Cl)c(C#N)c(=O)n(N)c1N	-52	-75	98	102
CCCCn1c2ccc(F)cc2c2nnc(NN)nc21	-20	15	99	102
O=C(CSc1nn(-c2ccc(F)cc2)c(=S)s1)N1CCN(C(=O)c2ccco2)CC1	-8	4	96	103
OCC1(CO)COC2(CCCCC2)N1	-17	·	98	106
COc1ccc(C=NC23CC4CC(CC(C4)C2)C3)cc1	-7	·	105	109
CC(=O)Nc1ccc(NC(=O)CN2CC=C(c3ccccc3)CC2)cc1	-20	-2	·	·
Cc1cccc(C)c1NC(=O)NC1(C(=O)N2CCCCC2)CCCCC1	5	-8	103	101
O=C(Nc1ccc(S(=O)(=O)N2CCCCC2)cc1)C(F)(F)F	-90	-12	100	104
Cc1oc(C(C)(C)C)cc1C(=O)Nc1cccc(C(=O)O)c1	-11	6	104	103
O=C(Cn1cnc2ccc(Cl)cc2c1=O)c1ccc[nH]1	-46	-5	110	107
NC(=O)COC(=O)/C=C/c1cccs1	·	11	100	105
Cc1ccc(-n2cnnc2)cc1	·	0	100	102
Cn1cccc1/C=C1\SC(=S)NC1=O	-375	32	111	116
O=C(CSc1nc2ccccc2[nH]1)Nc1ccc(OC(F)(F)F)cc1	-7	·	91	107
S=c1cc[nH]c(=S)n1-c1nc(-c2ccccc2)sc1-c1ccccc1	-101	11	101	100
CCc1cccc(NC(=O)/C=C/c2ccco2)c1	2	78*	105	118
Cc1ccc(CN2CCN(/N=C\C=C\c3ccccc3)CC2)cc1	12	15	102	102
CCSc1cnn(-c2ccccc2)c(=O)c1Cl	-5	25	99	100
O=C(Nc1ccccc1C(=O)NC1CCCC1)c1cn2ccccc2n1	-24	78	100	104
CCOC(=O)c1ccc(N(C)C)c2c(N(C)C)cccc12	·	-13	100	101

Reprinted from the entries so far, 5 compounds:
SMILES	Mtb MenB inh	MbtI inh	Polio RdRp inh	Polio RdRp inh intensity
OCC1(CO)COC2(CCCCC2)N1	-17	·	98	106
COc1ccc(C=NC23CC4CC(CC(C4)C2)C3)cc1	-7	·	105	109
CC(=O)Nc1ccc(NC(=O)CN2CC=C(c3ccccc3)CC2)cc1	-20	-2	·	·
Cc1cccc(C)c1NC(=O)NC1(C(=O)N2CCCCC2)CCCCC1	5	-8	103	101
O=C(Nc1ccc(S(=O)(=O)N2CCCCC2)cc1)C(F)(F)F	-90	-12	100	104

More structures.
SMILES	Mtb MenB inh	MbtI inh	Polio RdRp inh	Polio RdRp inh intensity
CN=Cc1c[nH]c2ccccc12	·	2	101	106
CN(CC(=O)Nc1ccc(F)c(F)c1F)C(=O)c1cccc(C(F)(F)F)c1	-14	-8	105	106
CSc1ccccc1NC(=O)COC(=O)C12CC3CC(CC(C3)C1)C2	·	-9	100	98
CC(=O)O/N=C/c1c(Nc2ccc(C)cc2)nc2c(C)cccn2c1=O	-22	-2	101	103
Cc1ccccc1NC(=O)COc1cccc(Br)c1	·	-12	101	96
COc1cccc(OC)c1OC(=O)C(C)Oc1ccc(C)cc1 (configuration not stated)	-21	-13	91	101
COc1ccc(CCn2c(C)c3c(=O)n(-c4nc5ccccc5s4)[nH]c3cc2=O)cc1	-52	-2	87	159
CCOC(=O)C1CCCN(S(C)(=O)=O)C1 (configuration not stated)	-2	-8	102	100
Cc1ccc(NC(=O)C(C)Sc2n[nH]c(-c3ccccc3O)n2)cc1 (configuration not stated)	27	46	102	103
CC(C(=O)Nc1ccc2c(c1)OCCO2)n1cc(S(=O)(=O)N2CCCC2)ccc1=O (configuration not stated)	-45	-5	104	99
COc1cccc(N=Cc2c[nH]c3ccccc23)c1	-11	13	92	90
CC1=C(c2ccc(C)cc2)S(=O)(=O)NC1=NCCN1CCOCC1	-9	15	102	101
O=C1CCCN1CC(CN1CCOCC1)Sc1nnnn1-c1ccccc1 (configuration not stated)	3	-6	99	101
FC(F)(F)c1nc(NCC(c2ccco2)N2CCCCC2)c2ccccc2n1 (configuration not stated)	-14	-16	106	109
COc1cc(C2CS(=O)(=O)CS(=O)(=O)C2)ccc1O	1	·	104	104
CCc1cc(=O)[nH]c(NC2CCN(C(=O)N3c4ccccc4Sc4ccccc43)CC2)n1	1	3	101	100
CCc1ccc(C(=O)OCC(N)=O)cc1	-18	10	105	100
CCCN=C1NN=C(c2cc(C)n(Cc3ccc4c(c3)OCO4)c2C)CS1	-9	-1	108	104
Cc1[nH]c2ccccc2c1C(=O)CN1C(=O)C2CC=CCC2C1=O (configuration not stated)	-8	13	99	97
COc1cccc(/C=C2\SC(=S)C(N)C2=O)c1OC (configuration not stated)	-28	-3	101	102

Quoted at random: two entries already listed, in no set order.
SMILES	Mtb MenB inh	MbtI inh	Polio RdRp inh	Polio RdRp inh intensity
CN(CC(=O)Nc1ccc(F)c(F)c1F)C(=O)c1cccc(C(F)(F)F)c1	-14	-8	105	106
COc1cc(C2CS(=O)(=O)CS(=O)(=O)C2)ccc1O	1	·	104	104

Going on with the list:
SMILES	Mtb MenB inh	MbtI inh	Polio RdRp inh	Polio RdRp inh intensity
CN=c1scc(-c2cc(C)n(CC3CCCO3)c2C)n1C (configuration not stated)	-6	-1	101	101
Cc1ccc(NC(=O)CC(C(=O)O)N(C)C)cc1 (configuration not stated)	-9	-4	100	103
N/C(=N\c1nc2ccccc2s1)NC(=O)c1ccccc1N	-2	i	99	98
C=CCn1c(=NC(=O)CC)sc2cc(S(N)(=O)=O)ccc21	5	13	101	99
CC1=C(C)CS(=NC(=O)c2ccccc2)N(C(=O)c2ccccc2)C1 (configuration not stated)	-5	36	101	101
CN(C)C=NC(=O)c1cccc(Br)c1	-10	14	110	107
CC(CC(=O)NCCN1C(=O)S/C(=C\c2cccs2)C1=O)n1ccnc1 (configuration not stated)	-62	-1	101	107
CCS(=O)CCSc1nc(-c2ccc(Br)cc2)cc(-c2ccccc2)c1C#N (configuration not stated)	3	42	102	103
CC1CCN(S(=O)(=O)c2ccc(NC(=O)c3ccc4c(c3)OCCO4)cc2)CC1	-9	47	100	101
Cc1ccc(C(=O)CCC(=O)Nc2ccc(Br)c(C)c2)cc1	3	-4	100	96
CCCN(CC(=O)Nc1ccccc1C)C(=O)CSc1ccc(S(=O)(=O)N2CCOCC2)cn1	-6	19	102	106
O=C(O)C1CC1C(=O)Nc1ccc(Oc2ccc(Cl)cc2C2CCCCC2)nc1 (configuration not stated)	-5	1	108	107
COC(=O)c1cc(S(=O)(=O)N2CCC(C)CC2)c[nH]1	1	-1	100	101
O=C(NCc1cccs1)c1cccn2c(=O)c3c4c(sc3nc12)CCCC4	-13	-13	96	125
Cc1cc(C(=O)OC(C)C(=O)N2CCc3ccccc32)c2ccccc2n1 (configuration not stated)	1	6	101	117
NC(=O)CSc1nc2[nH]ncc2c(=O)[nH]1	10	-6	104	104
COc1ccc(S(=O)(=O)N(C)CC(=O)O)c2ccccc12	4	·	100	106
Cc1cn(C2C=CC(CO)O2)c(=O)[nH]c1=O (configuration not stated)	-31	-4	106	98
CCCNC(=O)Nc1cc(C)ccn1	5	-19	100	104
O=C(NCCO)c1nc2ccccc2s1	-44	14	103	103
CCOC(=O)c1[nH]c(C(=O)O)c(CCN(CC)CC)c1C	-2	5	100	105
CCOC(=O)c1ccc(NC(=O)c2ccc(-c3ccc(F)cc3)o2)cc1	-30	40	102	101
Nc1nonc1C(=O)N1CCCCC1	9	·	98	103
Cn1cc(NC(=O)NCCc2ccsc2)c2ccccc2c1=O	-5	-7	57*	58*
COC(=O)C1=C(CS(=O)(=O)c2ccccc2)NC(=O)NC1c1ccccc1 (configuration not stated)	-2	-8	99	101
Cc1cccc(N2C(=O)c3ccc(C(=O)Nc4c[nH]c(=O)[nH]c4=O)cc3C2=O)c1C	11	·	109	113
Cc1nonc1NC(=O)Nc1cccnc1	-11	·	103	104
CC(C)(C)c1ccccc1NC(=O)c1ccc2c(c1)SC1=NS(=O)(=O)CCN12	-5	11	101	106
CCc1ccccc1N(CC(=O)N1CCc2ccccc2C1)S(C)(=O)=O	-70	-4	106	100
O=C(/C=C/c1c(Cl)nc2sccn12)Nc1ccc(F)cc1	3	5	99	101
CC(=O)OCC(=O)Nc1ccccc1	-30	-8	3.0*	0.0*
COc1ccc2cc3cc(C(=O)NC4CCCC(C)C4C)oc3nc2c1 (configuration not stated)	-19	97	106	105
CCN(CC)c1ccc(-n2c(C)cc(/C=C3/NC(=O)N(Cc4ccccc4F)C3=O)c2C)cc1	-20	-59	101	106
CCn1c(O)c(C=Nc2ccc(S(N)(=O)=O)cc2)c(=O)[nH]c1=S	-24	4	101	99
O=C(CN1CCN(S(=O)(=O)c2ccc3[nH]c(=O)[nH]c3c2)CC1)N1CCCCCC1	-23	-10	86*	93*
CC(C)N(C(=O)Cn1c(=O)n(-c2ccc(F)cc2)c(=O)c2oc3ccccc3c21)C(C)C	-16	16	98	106
N#CCSc1nc2cc(C(=O)NCc3ccccc3)ccc2c(=O)n1CCc1ccccc1	-22	-10	103	105
CN1CCC(N(C)C(=O)COc2ccc(S(=O)(=O)N3CCOCC3)cc2)CC1	-9	-6	106	112
O=C(NCc1ccccc1)C1CC1(c1ccccc1)c1ccccc1 (configuration not stated)	-7	·	101	93
CN1/C(=C\C(=O)c2ccccc2)Sc2ccccc21	-88	-6	103	100
Cc1ccc2cc3c(nc2c1)N(c1ccc(C(=O)O)cc1)CC3	-25	i	100	102
CCSc1nc2ccccc2c(=O)n1CC	30	14	102	99
NC(=O)c1ccc(NC(=O)CSC(=O)c2ccccc2)cc1	·	70*	102	105
O=C(/C(=C\c1ccc(F)cc1)n1ccccc1=O)N1CCCC1	10	10	100	101
Cc1ccc(N/C(N)=N/c2nc(C)cc(=O)[nH]2)c(C)c1	-3	-5	101	108

Some of the entries so far, with two lines to a compound.
Values in the order – Mtb MenB inh	MbtI inh	Polio RdRp inh	Polio RdRp inh intensity
- O=C(/C(=C\c1ccc(F)cc1)n1ccccc1=O)N1CCCC1
  10	10	100	101
- Cc1ccc(N/C(N)=N/c2nc(C)cc(=O)[nH]2)c(C)c1
  -3	-5	101	108
- NC(=O)c1ccc(NC(=O)CSC(=O)c2ccccc2)cc1
  ·	70*	102	105

Bioassay records deposited in PubChem by ICCB-Longwood Screening Facility, Harvard Medical School.

Compounds as they come. Share with any hit: about 1.8%.
